# Screening data deposited in PubChem BioAssay by Center for Chemical Genomics, University of Michigan.
# TAR Tat displ: TAR RNA-Tat peptide displacers, HIV-1, primary screen, biochemical, FRET, FAM/TAMRA-labeled Tat; HIV-1 TAR RNA, Tat peptide displacement FRET; active compounds read high; z-score (no concentration beside the values); AID 1259389, 2018; 0.6% of 100,000 active;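 note: score is relative to mean and SD of negative controls; some compounds called inactive have numbers as strong as hits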
# CDC25B CDK2 inh: primary biochemical HTRF screen for blockers of M-phase inducer phosphatase 2 binding to CDK2/cyclin A; P30305+P24941; HTRF CDC25B-CDK2/CyclinA binding, anti-His/anti-Flag; active compounds read high; z-score (concentration not given with the values); 0.72% of 94,000 active; AID 1259370, 2018;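 note: score is relative to mean and SD of negative controls; strong numbers were not always called active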
# * = called active by the depositor; x = not tested or not shown.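 Rule for the calls: active = z-score from 3 up in half or more of its runs; inactive = the rest.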
# The first six compounds, to show the layout:
# Results follow in this order: TAR Tat displ	CDC25B CDK2 inh
- CCCOc1ccc(C2c3c(oc4cc(C)c(C)cc4c3=O)C(=O)N2CCCN2CCOCC2)cc1 (stereo not drawn)
  -1.11	-1.15
- COC(=O)C1C(=O)CC(C)(O)C(C(=O)OC)C1c1ccc2c(c1)OCO2 (stereo not drawn)
  x	-0.61
- CCc1cc(-c2[nH]ncc2-c2nc3ccccc3n2C)c(O)cc1O
  x	-3.53
- O=C(Nc1ccccc1)c1nnc(-c2ccccc2)o1
  x	-0.13
- COC(=O)C1C(=O)CC(C)(O)C(C(=O)OC)C1c1ccc(Cl)cc1 (stereo not drawn)
  1.23	-1.36
- CCSc1ccc2nnc(-c3ccc(C)cc3)n2n1
  x	0.36

# This part in full, from the start:
# Results follow in this order: TAR Tat displ	CDC25B CDK2 inh
- CCCOc1ccc(C2c3c(oc4cc(C)c(C)cc4c3=O)C(=O)N2CCCN2CCOCC2)cc1 (stereo not drawn)
  -1.11	-1.15
- COC(=O)C1C(=O)CC(C)(O)C(C(=O)OC)C1c1ccc2c(c1)OCO2 (stereo not drawn)
  x	-0.61
- CCc1cc(-c2[nH]ncc2-c2nc3ccccc3n2C)c(O)cc1O
  x	-3.53
- O=C(Nc1ccccc1)c1nnc(-c2ccccc2)o1
  x	-0.13
- COC(=O)C1C(=O)CC(C)(O)C(C(=O)OC)C1c1ccc(Cl)cc1 (stereo not drawn)
  1.23	-1.36
- CCSc1ccc2nnc(-c3ccc(C)cc3)n2n1
  x	0.36
- CCOc1ccccc1NS(=O)(=O)c1ccc(N2CCCCS2(=O)=O)cc1
  0.29	x
- O=C(c1cc2n(n1)C(C(F)(F)F)CC(c1ccc(Cl)cc1)N2)N1CCOCC1 (stereo not drawn)
  3.71	-0.22
- Cc1ccccc1OCCCSCc1nc2ccccc2[nH]1
  1.5	-3.39
- COC(=O)c1ccccc1NC(=S)NNC(=O)c1ccc([N+](=O)[O-])cc1
  x	-0.82
- CC(C)(C)n1nc2c(c1NC(=O)c1ccc(Br)o1)CS(=O)C2 (stereo not drawn)
  x	0.25
- CCN(CC)c1ccc2nnc(CCC(=O)N3CCC(C)CC3)n2n1
  2.17	x
- CCc1ccc(S(=O)(=O)c2cn(C)c3cc(F)c(F)cc3c2=O)cc1
  1.12	3.7
- COc1cc(Cl)c(NS(=O)(=O)c2ccc(-c3ccc(=O)[nH]n3)s2)c(OC)c1
  0.47	x
- Cc1c(C(=O)CSc2ncccc2C(=O)O)sc2ccccc12
  x	-2.02
- CCC1=NN(C(=O)c2cccnc2)C(O)(C(F)(F)F)C1 (stereo not drawn)
  x	-0.64
- O=C1C2N=NN(Cc3cccc(F)c3)C2C(=O)N1c1ccc(F)c(F)c1 (stereo not drawn)
  0.99	-0.34
- CCOC(=O)C1CCN(C(=O)C2=C(C)C(=O)OC23CCN(C(C)=O)CC3)CC1
  4.4	x
- Cc1ccc(COc2ccc(C3NC(C(=O)O)CS3)cc2)cc1 (stereo not drawn)
  x	-1.25
- O=C(CCCC(=O)Nc1ccc(F)cc1F)Nc1ccc(F)cc1F
  x	0.78
- CCOc1ccc(C2C3=C(CC(C)(C)CC3=O)Nc3nc(-c4ccc(OC)cc4)nn32)cc1 (stereo not drawn)
  0.61	-0.8
- Cc1cc2c(cc1S(=O)(=O)N(CCN(C)C)Cc1ccco1)OCC(=O)N2
  0.82	x
- CCN1CCN(c2nc3ncn(CC(=O)Nc4ccc(Br)cc4)c(=O)c3s2)CC1
  4.54	x
- CC(=O)N1c2ccc(S(=O)(=O)N3CCCC3)cc2CC1C(=O)N1CCOCC1 (stereo not drawn)
  1.54	x
- O=C(NCCCN1CCN(C2CCCCC2)CC1)Nc1ccc(Cl)cc1
  0.26	-0.39
- c1coc(CNc2ncnc3[nH]ncc23)c1
  2	x
- CC1(C)Cc2c(sc3nc(SCC(=O)Nc4ccccc4)nc(N)c23)CS1
  -1.13	-1.94
- COc1ccc(N2CCN(CCNC(=O)Nc3ccc(Br)cc3F)CC2)cc1
  0.35	-2.38
- CCC(Sc1nc2ncccc2[nH]1)C(=O)N1CCCC1 (stereo not drawn)
  1.83	x
- Cc1nc(N2CCCC2)cc(N2CCN(C(=O)Nc3ccc4c(c3)OCCO4)CC2)n1
  -0.69	-1.87
- Cc1[nH]nc(-c2ccc(O)c(C)c2O)c1Oc1ccccc1
  0.76	-1.62
- O=C(C(=O)N1CCN(C(=O)c2ccco2)CC1)c1c[nH]c2ccccc12
  x	-0.64
- O=C(COc1ccc(F)cc1)Nc1ccc2nsnc2c1
  0.07	-0.73
- Cn1nc(C(=O)NCCCN(Cc2ccco2)C2CCCC2)c2c1-c1ccccc1OC2
  0.24	-0.47
- O=C(COC(=O)c1cccc(S(=O)(=O)N2CCSCC2)c1)c1ccccc1
  -0.13	-0.61
- O=C(Cn1nc2c3sccc3ncn2c1=O)Nc1ccccc1F
  1.09	x
- O=C1NCCSC1c1ccccc1 (stereo not drawn)
  x	-1.68
- Cc1ccc(S(=O)(=O)n2nc(C)c(S(=O)(=O)N3CCOCC3)c2C)cc1
  0.31	x
- CCN(CC)S(=O)(=O)c1ccc2c(c1)nnn2C1CCN(C(=O)NC(C)C)CC1
  2.73	x
- Cc1c(C2=CCN(S(=O)(=O)c3ccc(F)cc3)CC2)c2ccccc2n1C
  -2.22	0.38
- COc1ccc(C2C(C#N)=C(N)Oc3n[nH]c(C)c32)cc1CSc1ccccn1 (stereo not drawn)
  1.57	-0.44
- CCc1nc2sc3c(SCC(N)=O)ncnc3c2c2c1CCCC2
  x	-0.19
- CCOC(=O)c1c(C)sc2c(C)c(C)[nH]c12
  x	-0.09
- Cc1ccc(C)c(NC(=O)C2CCCN(S(=O)(=O)c3c(C)noc3/C=C/N(C)C)C2)c1 (stereo not drawn)
  x	-0.61
- CCCNCc1cccn1-c1sc(C)c(C)c1C(=O)O
  3.67	x
- CCC(=O)N1c2ccccc2CC1C(=O)NCCC1=CCCCC1 (stereo not drawn)
  1	x
- COc1ccc(-c2[nH]nc3nc(-c4cccc(Br)c4)cc(C(=O)O)c23)cc1
  1.99	x
- Cc1nc(SCc2cc(=O)n3nc(-c4ccccc4)sc3n2)n[nH]1
  -0.54	x
- Cc1ccccc1-n1c(=O)c2ccccc2n(Cc2cc(=O)n3ccccc3n2)c1=O
  x	-0.16
- O=C(CN1C(=O)C2CCCCN2c2ccc(C(=O)N3CCCC3)cc21)N1CCCC1 (stereo not drawn)
  0.2	x
- CCN1CCN(C(=O)C2Cc3cc(S(=O)(=O)N4CCOCC4)ccc3N2C(C)=O)CC1 (stereo not drawn)
  -0.28	x
- Cc1[nH]ncc1S(=O)(=O)c1ccc(Cl)cc1
  x	-1.65
- CCCCSc1nc2c(c(=O)[nH]1)C(c1ccc(OC)cc1)C(C(=O)OC)=C(C)N2 (stereo not drawn)
  -1.85	-0.42
- C/S(=N/C(=O)Nc1ccc(OC(F)(F)F)cc1)c1ccc(OC(=O)c2ccc(Cl)cc2)cc1 (stereo not drawn)
  x	-0.97
- CCOC(=O)c1c(C)oc2ncnc(NCCCN3CCN(CC)CC3)c12
  -1.35	x
- COc1ccc(NC(=O)CSc2nc3ccncc3[nH]2)c(OC)c1
  1	-0.66
- CCOC(=O)c1cnc2c(F)ccc(F)c2c1Oc1cncc(Cl)c1
  x	-1.63
- O=C1CSc2ccc(S(=O)(=O)N3CCC(C(=O)NC4CC4)CC3)cc2N1
  1.25	x
- O=c1c2ccccc2nc2sc(Nc3cccc(Cl)c3)nn12
  1.24	x
- O=C(Nc1ccc(Br)cc1F)N1CCC2(CC1)Nc1cc(F)ccc1-n1cccc12
  0.93	x

# Next section.
mol,TAR Tat displ,CDC25B CDK2 inh
O=C(NCCN1CCOCC1)C12CC3CC(CC(C3)C1)C2,x,-0.9
N#C/C(=C\c1cccs1)S(=O)(=O)c1cccs1,x,0.61
C=CCNC(=O)c1cc(-c2cccnc2)nc2ccc(Br)cc12,-1.72,x
Cc1cc(C)c(-c2c(Nc3ccc(Br)c(C)c3)c(=O)c2=O)cc1C,-0.11,x
Cc1ccc(/C(O)=C2\C(=O)C(=O)N(CCN3CCOCC3)C2c2ccncc2)cc1 (stereo not drawn),-0.61,-1
Cc1ccc(-c2nc3cccnc3s2)cc1NC(=O)C1CCCO1 (stereo not drawn),1.18,-1.3
Cc1nnc(SCc2nc(-c3cccs3)no2)n1-c1ccc(Cl)cc1,2.81,-0.43
COc1ccc(N2C(=O)C3N=NN(Cc4ccc(F)cc4Cl)C3C2=O)cc1 (stereo not drawn),-0.41,-0.2
Cn1c2c(c(=O)n(C)c1=O)CN(Cc1ccco1)CN2,x,-1.09
CCOC(=O)c1csc(NC(=O)CSc2cc(OC)ccc2OC)n1,x,-0.66
CCCCNc1ncnc2c1cnn2-c1cccc(Cl)c1,1.66,x
O=C(O)CCc1nc(N2CCCCC2)c2c(-c3ccccc3)noc2n1,1.83,-1.43
CCOc1cc(CNCc2cccnc2)cc(Cl)c1OCc1cccs1,0.69,1.45
COc1ccc2nc(NC(=O)c3cc4c(s3)-c3ccccc3OC4)sc2c1,0.55,1.4
CNC(=O)c1c(NC(=O)c2ccc(S(=O)(=O)N(C)C3CCCCC3)cc2)sc2c1CCC2,-0.43,x
CN1CCN(c2cc3c(cc2F)c(=O)c(S(=O)(=O)c2ccc(Cl)cc2)cn3C)CC1,-0.52,x
CC1CN(C(=O)CCC(=O)NCCCN2CCOCC2)c2cc(Cl)ccc2O1 (stereo not drawn),0.05,-1.7
CCOC(=O)c1ccc(-c2ccc(C3NC(=O)c4c(sc5c4CCN(C)C5)N3)o2)cc1 (stereo not drawn),0.36,-1.08
O=C(NCC1CCCO1)c1ccc(Cn2c(SCc3ccc(F)cc3)nc3ccncc32)cc1 (stereo not drawn),1,-1.04
O=C(Nc1ccc2c(c1)OCCO2)C1CCN(S(=O)(=O)c2cccnc2)CC1,2.37,x
Cc1ccc(NS(=O)(=O)C2CCS(=O)(=O)C2)c(C)c1 (stereo not drawn),0.63,-1.41
c1ccc(C2CCCN(c3ncnc4nc[nH]c34)C2)cc1 (stereo not drawn),1.32,-1.3
CN1CCN(c2ccc3nnc(CCC(=O)NCCc4c[nH]c5ccccc45)n3n2)CC1,0.06,x
O=C1COc2cc(-c3c(N4CCN(C5CCCCC5)CC4)c(=O)c3=O)ccc2N1,0.16,x
O=S(=O)(NCCc1csc2nc(-c3ccccc3F)nn12)c1cccc(Cl)c1,0.03,x
Cc1cc(C)c2nc(N3CCCC(C(=O)N4CCC(C(N)=O)CC4)C3)sc2c1 (stereo not drawn),0.39,-2.64
O=C(c1csc2c1CCCC2)N1CCOCC1,0.65,-2.09
Cc1ccc2c(c1C)NC(=O)CC2c1cc(Br)ccc1F (stereo not drawn),x,-1.45
Cc1cccc(N2C(=O)N(c3cccc(Br)c3)C3CS(=O)(=O)CC32)c1 (stereo not drawn),-0.84,-1.1
O=C1NC(=O)C(Nc2ccccc2)S1 (stereo not drawn),0.69,-1.08
O=C(CSc1nnc(Cn2nc(-c3ccccc3)ccc2=O)o1)NCC1CCCO1 (stereo not drawn),1.08,x
Cc1ccc(C(=O)CSc2nccn(-c3cc(C)cc(C)c3)c2=O)cc1,1.01,x
C(=C\c1ccccc1)/Cn1c(C2CCCO2)nc2ccccc21 (stereo not drawn),0.07,-0.66
CCOc1nc(C)ccc1-c1noc(-c2cccc(OC)c2)n1,-0.09,-1.26
c1ccc(-c2noc(NCCN3CCOCC3)n2)cc1,0.74,x
O=C(Nc1ccccc1)Nc1ccc(C(F)(F)F)cc1Br,x,0.07

# In another format: three of the compounds above
> O=C1NC(=O)C(Nc2ccccc2)S1 (stereo not drawn)
  TAR Tat displ: 0.69
  CDC25B CDK2 inh: -1.08

> O=C(CSc1nnc(Cn2nc(-c3ccccc3)ccc2=O)o1)NCC1CCCO1 (stereo not drawn)
  TAR Tat displ: 1.08
  CDC25B CDK2 inh: x

> Cc1ccc(C(=O)CSc2nccn(-c3cc(C)cc(C)c3)c2=O)cc1
  TAR Tat displ: 1.01
  CDC25B CDK2 inh: x

# New compounds follow
mol,TAR Tat displ,CDC25B CDK2 inh
CCCCN(CC)CCCNC(=O)c1nn(C)c2c1COc1ccccc1-2,1.04,-0.98
O=C(C1CCCN(c2nnc(N3CCCC3=O)s2)C1)N1CCOCC1 (stereo not drawn),1.73,-1.26
O=c1cc(CSc2ccccc2)nc2scc(-c3ccccc3)n12,-1.16,-1.11
CCc1n(CC(O)COc2ccc(OC)cc2)c2ccccc2[n+]1C (stereo not drawn),2.89,0.18
CCCCCc1c(O)nc(SCCN(C)C)[nH]c1=O,0.82,0.2
Cc1ccc2nc(Nc3nc(O)cc(=O)[nH]3)nc(C)c2c1,1.45,1.39
CCS(=O)(=O)c1nc(S(=O)(=O)c2ccc(Cl)cc2)c(N2CCCC2)s1,1.64,-1.06
CCOC(=O)c1c(NC(=O)N(C(C)C)C2CCN(C(C)=O)CC2)sc2c1CCCC2,1,0.63
CCN(C(=O)CSc1nncn2c1cc1sccc12)c1ccccc1,2.09,x
Cc1ccc(-n2c(C)cc(CNC(=O)NCC3CCCO3)c2C)cc1 (stereo not drawn),-1.59,x
CC1CCCCC1NC(=O)C1CCN(c2nnc(N3CCCC3=O)s2)CC1 (stereo not drawn),0.02,-0.16
Cc1ccc(O)cc1,0.42,x
CNC(=O)c1c(NC(=O)c2cccc(N3C(=O)CCC3=O)c2)sc2c1CCC2,0.13,x
COCCCNC(=O)C1CCN(S(=O)(=O)N2CCCCC2)CC1,1.7,x
O=C(CS(=O)(=O)c1ccc(Cl)cc1)Nc1nc(-c2ccncc2)cs1,-1.44,x
O=C(NCc1ccc2c(c1)OCO2)c1cc2c(Cl)ccc3c2n1CCO3,1.32,x
CCC1Sc2ccc(S(=O)(=O)CCC(=O)Nc3cccc(SC)c3)cc2NC1=O (stereo not drawn),0.04,x
